RN4220 kill = S. aureus RN4220 growth inhibition. OD600, 16 h. inhibition, % (concentration not given with the values). actives 0.33% (n = 330,000). AID 1259311;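 active = z-score of -3 or lower and OD600 up to 0.18 on both plates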;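 also: plate controls were untreated cells for no effect and reference antibiotic for full effect; stock transfer was 100 nL into about 80 µL; one replicate is shown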
BJeLR viability = BJeLR cell viability loss. inhibition, % (concentration not given with the values). BJeLR (HRASV12) viability, CellTiter-Glo ATP luminescence, 48 h; reference of the scale not given here. actives 0.17% (n = 300,000);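 active = replicate mean above 50%; inconclusive = above 50% but judged a plate artefact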;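 also: 50 nL library stock added to about 25 µL; numbers are from one replicate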
PrP UTR inh = inhibition of PrP 5' UTR reporter expression; cell-based PrP 5' UTR mRNA reporter, plate reader; inhibition, % (test concentration not listed); actives 0.35% (n = 340,000); AID 488862;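 active = every replicate at 50% or more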;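 also: 0 = median of the neutral control wells; tested in H4 reporter cells; numbers are from one replicate; inactives centre near -14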
Mtb hypoxia inh = reduces hypoxia-regulated biosensor signal in M. tuberculosis | M. tuberculosis hypoxia-regulated fluorescent reporter, fluorescence | fluorescence inhibition, % (concentration not given with the values) | actives 0.1% (n = 300,000);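 active = 35 to 45% if threefold the growth effect, above 45% if 1.5-fold the growth effect; inactive = the rest, general growth blockers included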;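 also: wells of about 50 µL received 100 nL stock; 0% = vehicle wells and 100% = reference inhibitor wells; whole bacteria with a GFP reporter of the hypoxia response; strong numbers were not always called active; many hits fall short of the cut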
ugtP null kill = kills S. aureus RN4220 lacking UgtP; growth inhibition, % (no concentration beside the values); S. aureus RN4220 ugtP deletion, OD600 growth, 16 h; some inactives read as strong as hits; actives 0.54% (n = 330,000);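 active = z-score under -3 and OD600 up to 0.15 on both plates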;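 also: plate controls were untreated wells for no effect and antibiotic for full effect; wells of about 80 µL received 100 nL stock; the first replicate is given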
Bead autofluor = counter-screen for toxin protease inhibitors: compound fluorescence. actives 3.1% (n = 360,000). compound autofluorescence counterscreen, microsphere flow cytometry; active compounds read high. fluorescence intensity (concentration not given with the values);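 active = at least 3 SD above the mean of all compounds, about 16000 in these data; inconclusive = too few beads counted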;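 also: 100 nL of 1 mM stock went into each well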
Mtb hypoxia inh growth = also measured in Mtb hypoxia inh; calls as there; growth inhibition, %; measured here: M. tuberculosis growth (absorbance);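 0% = vehicle and 100% = reference antibiotic; read after six days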
* hit, by the source's call; ? = inconclusive; . = no result given; & = joins results of further samples.

item	molecule	RN4220 kill	BJeLR viability	PrP UTR inh	Mtb hypoxia inh	Mtb hypoxia inh growth	ugtP null kill	Bead autofluor
1	COc1ccccc1NC(=S)NC(=O)Cc1ccc(Cl)cc1	0.6	-4	-15	3	16	0	3895
2	COc1ccc(/C=N/NC(=O)c2cccc(NC(C)=O)c2)c(OC)c1	.	-2	-29	.	.	.	3512
3	Cc1cc(C(=O)CSc2nc3ccc(Cl)cc3[nH]2)c(C)n1Cc1ccco1	-4.3	3	-17	-7	-9	-8	3621
4	Cc1onc(-c2ccccc2)c1-c1csc(NN=Cc2ccccc2)n1	2.5	.	.	7	5	-2	.
5	Cc1ccc(NC(=O)NCCCN2CCCC2=O)cc1C	1.4	11	-19	-3	-6	6	4794
6	Cc1ccc(CNC(=O)CCC2CCCN(Cc3cccc4cccnc34)C2)o1 (configuration not stated)	-0.5	1	-15	-5	6	1	5838
7	CCOC(=O)Cc1csc(NS(=O)(=O)c2cccc([N+](=O)[O-])c2)n1	5.0	-9	-19	-1	0	6	4443
8	Cc1ccccc1N/N=C/c1ccc(C#N)cc1	.	0	-40	.	.	.	2133
9	COc1cccc(NC(=O)CNC(=O)Cn2cnc3sc4c(c3c2=O)CCCC4)c1	-2.0	-6	-3	-8	15	7	5666
10	N#Cc1c(Nc2ccccc2)c(C=NNCCO)c[nH]c1=O	4.7	.	.	6	2	6	.
11	CC(=O)Nc1ccc(/C=N/OCC(=O)Nc2ccc(C)cc2)cc1	.	-21	-59	.	.	.	2179
12	CCOCCCN1CC(C(=O)NCCc2ccc(C)cc2)CC1=O (configuration not stated)	-13	-4	-5	12	1	-4	2784
13	Cc1ccccc1C(=O)Oc1ccc(Sc2ccc(O)cc2)cc1	-2.6	0	-9	.	.	79	.
14	Cc1cc(O)c(C2(O)C(=O)Nc3cc(Br)ccc32)cc1C (configuration not stated)	-5.5	-6	-10	-5	0	-15	3122
15	CCOC(=O)CSc1nc2cc(C(=O)N3CCCC3)ccc2c(=O)n1Cc1ccccc1	2.3	-1	-11	21	11	2	4169
16	O=C(C1CCCN(CCCc2ccccc2)C1)N1CCCCC1 (configuration not stated)	7.3	-5	-26	7	3	5	2432
17	COC(=O)c1cc(-c2ccc(OC)c(OC)c2)c2c(=O)[nH]c(=O)n(C)c2n1	-0.2	-7	-10	-5	6	-4	3440
18	Cc1ccc(C(=O)Nc2cccc(NC(=O)c3cccnc3)c2)cc1	4.4	-14	-7	-2	16	-20	5417
19	C/C(=N/NC(=O)CSc1nc2ccccc2n1C)c1ccc(O)cc1	.	1	-29	.	.	.	3938
20	Cc1ccc(CN2C(=O)CCC2C(=O)NC(C)C)cc1 (configuration not stated)	3.2	-6	-15	8	3	-4	2281
21	COc1ccc(CN(C(=O)c2ccco2)c2ccc(Br)cc2)cc1OC	-0.6	7	-18	13	-1	9	3848
22	CCOc1cc(C=NNC(=O)CCCC(=O)NC2CCCCC2)ccc1O	4.3	.	.	12	4	4	.
23	CCn1cc(C(=O)Nc2ccccc2C(=O)OC)cn1	4.5	-21	.	1	7	-2	3528
24	Cc1ccc(-c2cc(C(=O)N(C)Cc3cnn(C)c3C)c3cc(Br)ccc3n2)cc1	8.9	-10	-5	17	-3	8	1933
25	CCn1c(Cc2cccs2)nnc1SCC(=O)NC1CC1	-2.9	-9	7	-2	-8	-7	5476
26	Cc1ccc(OC(=O)N2CCOCC2)cc1	4.9	-5	-20	9	3	3	9363
27	COc1ccc(NC(=O)C2CCCN2S(=O)(=O)c2cccc3cccnc23)cc1OC (configuration not stated)	3.7	-2	-1	-7	-3	6	5074
28	O=C(COC(=O)C1CCC(=O)N1)Nc1ccc(Cl)cc1Cl (configuration not stated)	3.3	8	-19	6	5	0	2385
29	C=CCNC(=S)Nc1ccc2nc(C)oc2c1	17	-4	-12	12	10	-66	3235
30	Cc1ccc(NC(=O)c2ccccn2)c(Br)c1	5.2	5	-107	20	13	15	4142
31	CCOc1ccccc1C1CC(c2ccc(Br)cc2)Nc2nc(N)nn21 (configuration not stated)	5.0	-11	-12	.	.	6	6239
32	Cn1c(N)c(C(=O)COC(=O)c2ccc(Cl)nc2)c(=O)n(C)c1=O	2.2	5	-25	-1	8	2	4517
33	CC(C)(C)C(=O)/C=c1\[nH]c(=O)/c(=C\c2ccc(F)cc2)s1	.	7	4	.	.	.	2732
34	CCC1CCCCN1Cc1nc(Cc2ccccc2Cl)no1 (configuration not stated)	3.0	7	-10	21	6	5	3394
35	CN(C)CCN1C(=O)NC(C)(c2ccc([N+](=O)[O-])cc2)C1=O (configuration not stated)	2.8	-1	-47	6	7	10	3843
36	CCOC(=O)N1CCC(n2c(SCC(=O)Nc3nccs3)nc3ccsc3c2=O)CC1	-0.6	3	-14	2	3	-2	8139
37	O=C(NCc1ccc(F)cc1)C1CCN(S(=O)(=O)N2CCCCC2)CC1	0.0	3	8	1	3	4	10939
38	O=C(Nc1ccc2c(c1)CCC2)c1ccccc1Br	4.4	-3	-132	-7	-3	-11	4171
39	Cc1cccc(C(=O)Nc2cccc(OCC(=O)O)c2)c1	2.3	-6	-25	6	4	-1	2203
40	CC(=NNC(=O)CNC(=O)c1ccccn1)c1ccc([N+](=O)[O-])cc1	3.2	.	.	2	0	-16	.
41	CCC(C(=O)NCCCN1CC(C)CC(C)C1)n1ncn2c(cc3occc32)c1=O (configuration not stated)	0.2	5	-7	0	0	3	5629
42	CCCc1ccc(C(=O)NNc2ccccc2F)cc1	2.0	-3	-50	-4	8	21	6462
43	COc1cc2[nH]c(=O)n(CCC(=O)N3CCN(Cc4ccccc4)CC3)c(=O)c2cc1OC	1.7	4	-47	10	-1	1	4193
44	COc1ccccc1/C=C/C(=O)NCCC1=CCCCC1	-0.6	-12	-80	13	9	-2	2471
45	O=C(O)CCCNS(=O)(=O)c1ccc2c(c1)OCCCO2	2.5	-4	-49	6	0	7	2400
46	CCOC(=O)c1cnc(-n2nc(C)cc2C)nc1Oc1ccc(C#N)cc1	2.3	-2	-7	11	1	3	3466
47	N#Cc1c(Sc2ncc(C(F)(F)F)cc2Cl)nsc1CC=NOCc1c(F)cccc1Cl	28	.	.	16	2	36	.
48	CCCCC(CNC)NCC(Cc1ccc(O)cc1)NCCc1ccc(OCC)cc1 (configuration not stated)	-2.7	.	.	13	20	-8	.
49	CC1C=C(C(=O)NCc2nc3ccccc3[nH]2)OC(OCc2ccc(CO)cc2)C1 (configuration not stated)	-1.7&4.1	.	.	14&1	6&9	-1&4	.
50	Cc1cc(Nc2ccc(Cl)cc2)nc(N)n1	0.1	0	-56	9	6	-9	21661*
51	COc1ccc(C(C)=O)cc1CSc1nc2ccccc2c(=O)n1-c1ccccc1C	3.9	-36	-19	-11	12	-1	9900
52	COc1ccc(OC)c(C2=NOC(C(=O)NCc3cccnc3)C2)c1 (configuration not stated)	2.7	-18	-19	-2	9	2	2886
53	O=C(CCn1cnc2ccccc2c1=O)Nc1cccc(Cl)c1	-0.5	-1	-9	3	-6	-7	4302
54	CCOC(=O)c1c(NC(=O)CSc2nnc(-c3c[nH]c4ccccc34)n2CCOC)sc2c1CCCCC2	-12	5	-19	3	13	-35	5989
55	C=CCOc1ccc(/C=C/C(=O)OCC(=O)N2CCC(c3ccccc3)=N2)cc1	11	.	-16	11	2	-2	2993
56	O=C(Cc1ccccc1F)Nc1ccc(SC(F)F)cc1	-2.6	-4	-7	9	12	11	2284

(continued)
item	molecule	RN4220 kill	BJeLR viability	PrP UTR inh	Mtb hypoxia inh	Mtb hypoxia inh growth	ugtP null kill	Bead autofluor
57	COc1cccc(N2C(=O)CC(Nc3ccc(N4CCOCC4)cc3)C2=O)c1 (configuration not stated)	-3.8	-4	-14	-4	4	-12	10385
58	Cc1ccc2c(c1)sc1nc(=O)n(-c3ccc(Cl)cc3)c(=O)n12	-0.8	16	-26	5	-7	-8	19455*
59	NC(N)=NCCC[C@H](NC(=O)OCc1ccccc1)C(=O)O	.	9	-10	.	.	.	4392
60	CCn1c(SCC(=O)NN=C(C)c2ccncc2)nc2ccccc21	0.2	.	.	0	4	3	.
61	CC(C)CC(C(=O)O)C(C)CC(=O)Nc1ccn(-c2ccccc2)n1 (configuration not stated)	0.6	3	-13	2	10	-13	2510
62	CCCn1c(SCC(=O)NCc2ccccc2)nnc1-c1ccncc1	-0.8	7	-23	.	.	4	2360
63	CCC(C)[C@H](NC(=O)OC(C)(C)C)C(=O)NN=CC1=Cc2ccccc2OC1 (some centres not stated)	0.1	.	.	-1	5	-4	.
64	O=C(Oc1c(Cl)cc(Cl)c2cccnc12)N1CCCCC1	0.8	-10	-28	-5	-6	-7	21476*
65	COC(=O)c1ccc(NC(=O)N2CCCC(C(=O)c3ccccc3OC)C2)cc1 (configuration not stated)	-2.5	8	-15	1	4	-2	2483
66	Cc1ccc2sc(N(CCCN(C)C)C(=O)c3nc4ccccc4s3)nc2c1C	-6.8	0	-19	23	5	-7	4330
67	CCOC(=O)C1CCN(C(=O)COC(=O)C2CCN(S(=O)(=O)c3ccc(C)c(C)c3)CC2)CC1	1.7	7	-11	-6	-9	2	?
68	Cc1nnc(SC(C)C(=O)Nc2ccc(N3CCOCC3)cc2)n1Cc1ccccc1 (configuration not stated)	6.5	.	-20	2	-3	14	4198
69	CCN1CCN(c2nnc(-c3ccc(F)cc3)c3ccccc23)CC1	-2.8	5	-13	2	1	1	2944
70	O=C(NN=Cc1ccncc1)c1ccc(Br)s1	3.9	.	.	5	14	8	.
71	c1n[nH]c(SCCCCSc2ncn[nH]2)n1	-14	0	2	18	-18	-5	.
72	O=c1cc(-c2ccc3c(c2)OCCO3)oc2ccc(Cl)cc12	5.1	-8	-55	2	4	-6	2221
73	CC(C)(C)c1ccc(COC(=O)CN2C(=O)NC3(CCCC3)C2=O)cc1	-1.6	-11	-12	-9	-3	-9	6088
74	OC(c1ccccc1)(c1ccc(Cl)cc1)C1CN2CCC1CC2 (configuration not stated)	-9.0	1	-40	7	3	-6	?
75	O=C(CSc1nnc(CNC(=O)c2cccs2)o1)NCc1ccc(F)cc1	1.6	-11	-10	12	12	6	3542
76	CC(=NNS(=O)(=O)c1ccc(C)c([N+](=O)[O-])c1)c1cccs1	16	.	.	-2	0	-4	.
77	COC1=C(Nc2ccc(O)cc2)C(=O)c2ccccc2C1=O	41	-1	-84	-2	-4	9	6829
78	CCc1nn(C)c(-c2n[nH]c(=S)n2N)c1Cl	3.5	0	-34	7	11	0	2280
